# CBX7 inh: CBX7 chromodomain binding inhibitors, primary screen, biochemical, AlphaScreen; AlphaScreen His6-CBX7 / biotin-H3K27me3 peptide binding; hits give low values; 66,000 tested, 1.1% active; normalised signal (fraction of DMSO) (no concentration beside the values); in the data active means normalised signal below about 0.5;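 further: 100 nL library stock added to about 20 µL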
# Target sequence (O95931 whole entry, looked up): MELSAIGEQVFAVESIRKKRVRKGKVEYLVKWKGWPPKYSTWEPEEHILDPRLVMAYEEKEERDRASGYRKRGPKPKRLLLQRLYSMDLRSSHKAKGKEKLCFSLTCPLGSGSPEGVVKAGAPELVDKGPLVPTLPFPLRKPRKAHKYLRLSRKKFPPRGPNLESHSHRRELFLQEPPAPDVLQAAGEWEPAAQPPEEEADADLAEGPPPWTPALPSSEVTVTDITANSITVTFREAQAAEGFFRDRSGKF
# CBX7 inh z-score: recorded beside CBX7 inh, whose call it bears; z-score; measured here: z-score of CBX7 signal; some inactives read as strong as hits; reference of the scale not given here;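 same signal on another scale; lower means less binding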
# * marks the source's active call; other numbers are inactive results. The list is partial (hit frequency here may not be typical).
SMILES,CBX7 inh,CBX7 inh z-score
CCCCNC(=O)c1c(-c2ccccc2Cl)noc1C,1,0.31
Cc1ccc(Nc2nc(Cc3ccccc3)nc3sc4c(c23)CCCC4)cc1F,1,1.4
OCCN(Cc1ccccc1)c1ccc2nncn2n1,1,0.31
C=CCn1c(C2CC(=O)N(c3cccc(C)c3C)C2)nc2ccccc21 (configuration not stated),0.94,-0.36
Cc1ccc(-c2nc(S(=O)(=O)c3ccc(F)cc3)c(SCC(=O)NCC3CCCO3)o2)cc1 (configuration not stated),0.98,-0.13
CCOc1ccc(N2C(=O)CC(N3CCN(c4ccccc4OC)CC3)C2=O)cc1 (configuration not stated),1,0.37
Cc1sc2ncn(CC(=O)Nc3ccccc3F)c(=O)c2c1S(=O)(=O)N1CCN(C)CC1,1.1,1.9
CC1Cc2ccccc2N1C(=O)C1CCCN(S(=O)(=O)c2cccc3cccnc23)C1 (configuration not stated),0.94,-2.9
CC12C=CC3(CN(Cc4ccccc4)C(=O)C3C1C(=O)NCc1cccnc1)O2 (configuration not stated),1.1,0.15
Cc1cccc(OCC(=O)Nc2cc(-c3nc4cc(C)ccc4o3)ccc2Cl)c1,1,0.38
Cc1cc2nc(Cc3ccc(Cl)cc3Cl)c(=O)[nH]c2cc1C,0.99,-0.39
CC1(C)CC(=O)C2=C(C1)NC(=O)CC2c1ccc(F)c(F)c1 (configuration not stated),0.96,-0.51
CCOc1ccc(-c2cc(C(=O)NC3CCC(C)CC3)c3ccccc3n2)cc1 (configuration not stated),0.95,-0.88
CCc1ccc(NC(=O)CSc2nnc(-c3ccco3)o2)cc1,1,0.39
O=C(Nc1nnc(CCS(=O)(=O)c2ccc(Br)cc2)s1)C1CCCCC1,1,0.87
COCCn1c(=O)[nH]c2cc(C(=O)NCc3ccc(OC)cc3)ccc2c1=O,0.98,-0.7
COc1ccc(-c2cn3nc(-c4ccc(Br)cc4)n4c3c2CCCC4)cc1,0.98,-0.7
COc1cccc(NS(=O)(=O)c2ccc3[nH]cc(C(=O)N4CCCCCC4)c(=O)c3c2)c1,0.88,-1.5
CCn1c(C(=O)N2CCC(C(=O)NCc3ccccc3OC)CC2)cc2sccc21,0.8,-0.9
Cc1ccc(NC(=O)C2=CCN(S(=O)(=O)c3ccc(Br)cc3)CC2)c(C)c1,1.1,3.3
COCCn1c(C(C)O)nc2ccccc21 (configuration not stated),1.1,1.3
COc1cc(C(=O)Nc2nnc(CC(=O)NCc3ccccc3)s2)cc(OC)c1OC,0.93,-1.2
CC1CCCC(NC(=O)CC2Sc3ccccc3NC2=O)C1C (configuration not stated),1,0.13
CCCn1c(C(O)c2ccc(OC)c(OC)c2)nc2ccccc21 (configuration not stated),0.99,-0.32
Cc1c(NC(=O)c2cccnc2Cl)cccc1-c1nc2ncccc2o1,0.86,-1.5
CC1CCCCN1CCCNC(=O)C1CC(=O)N(c2ccc(F)c(Cl)c2)C1 (configuration not stated),1,1.4
CC(=O)Nc1cccc(N2C(=O)CC(Cc3cccc(C)c3)C2=O)c1 (configuration not stated),1,0.41
Cc1cccc(CN2C(=O)CSc3ccc(C(=O)N4CCC5(CC4)OCCO5)cc32)c1,1,1.1
O=C1CCc2cc(S(=O)(=O)NC(C(=O)Nc3cccc(F)c3)c3ccccc3)ccc2N1 (configuration not stated),1,0.26
CCC1=Nc2cc(C(=O)N3CCN(C)CC3)ccc2Sc2ccc(Br)cc21,0.93,-3.4
CCC(C)Sc1oc(-c2cccs2)nc1S(=O)(=O)c1ccccc1 (configuration not stated),0.98,-0.13
O=c1c2ccccc2c(-c2ccccc2)nn1CCc1ccccn1,1,-0.046
COc1ccc([N+](=O)[O-])cc1NC(=O)c1ccc2c(=O)n3c(nc2c1)CCCCC3,1,0.41
Cc1ccc(S(=O)(=O)C2(C(=O)N(C)Cc3ccccc3)CC2)cc1,1,1.3
CCN(CC)C(=O)CSc1nc2ccccc2nc1Cc1ccc(F)cc1,0.79,-0.94
CCCNC(=O)c1ccc2c(c1)N(Cc1ccccc1)C(=O)c1ccccc1S2,0.92,-0.79
CCOC(=O)c1ccc2ncc(-c3ccccc3)nc2c1,1.1,3.5
Cc1cccc(-c2cc(C(=O)NCc3ccccn3)c3ccccc3n2)c1,1,-0.0072
COc1ccccc1N1CCN(c2ncc(C(=O)N3CCOCC3)c3ccccc23)CC1,1,0.022
CC(C)(C)NC(=O)CSc1nc2ccccc2n1-c1ccccc1,0.94,-1.3
CC1CC(C)CN(c2nnc(NC(=O)Nc3ccccc3Cl)s2)C1 (configuration not stated),0.77,-0.91
CCc1cccc(NC(=O)c2cccc3c2C(=O)N(c2ccc(OC)cc2)C3)c1,1.1,1.9
O=C(NCc1ccc2c(c1)OCO2)C1C2C=CC3(CN(Cc4cccs4)C(=O)C13)O2 (configuration not stated),1.2,2.6
COc1ccc(NC(=O)CN2C(=O)CSc3ncccc32)cc1OC,0.7,-1.2
COc1ccc(OC)c2[nH]c(=O)c(CCNC(=O)c3ccc4ccccc4c3)cc12,1.1,2.1
COCc1nnc(NC(=O)c2cc(-c3ccccc3)nc3ccccc23)s1,1,0.51
c1ccc(OCc2nnc3sc(C4COc5ccccc5O4)nn23)cc1 (configuration not stated),0.99,-0.36
COc1cc(OC)cc(-c2cc3nc(C)c(CCC(=O)NCc4cccs4)c(C)n3n2)c1,1,0.4

# Among those listed so far, 6 contain a Cl atom.
SMILES,CBX7 inh,CBX7 inh z-score
CCCCNC(=O)c1c(-c2ccccc2Cl)noc1C,1,0.31
Cc1cccc(OCC(=O)Nc2cc(-c3nc4cc(C)ccc4o3)ccc2Cl)c1,1,0.38
Cc1cc2nc(Cc3ccc(Cl)cc3Cl)c(=O)[nH]c2cc1C,0.99,-0.39
Cc1c(NC(=O)c2cccnc2Cl)cccc1-c1nc2ncccc2o1,0.86,-1.5
CC1CCCCN1CCCNC(=O)C1CC(=O)N(c2ccc(F)c(Cl)c2)C1 (configuration not stated),1,1.4
CC1CC(C)CN(c2nnc(NC(=O)Nc3ccccc3Cl)s2)C1 (configuration not stated),0.77,-0.91

# The list goes on.
SMILES,CBX7 inh,CBX7 inh z-score
CCN1CCN(CCCNC(=O)CC2Oc3ccccc3NC2=O)CC1 (configuration not stated),1.3,1.9
CCOC(=O)N1CCN(c2cc(=O)n(-c3ccc(Br)cc3)c(=O)[nH]2)CC1,1.1,2.1
COc1ccccc1CNC(=O)CN1C(=O)COc2ccccc21,1.1,1.2
Cc1ccc(OCC(=O)Nc2ccccc2N2CCOCC2)c(C)c1,1.1,2.4
CCOCCCNC(=O)c1ccc2c(c1)N(Cc1ccccc1)C(=O)CS2=O (configuration not stated),1.1,2.3
COC(=O)c1cc(N2C(=O)C3C4C=CC(O4)C3C2=O)ccc1Cl (configuration not stated),1.1,1
CN(C)c1oc(COc2ccc(F)cc2)nc1C#N,0.94,-1.8
O=C(Cn1nc(Cc2ccncc2)c2ccccc2c1=O)Nc1ccc(F)cc1F,1.1,1.6
Cc1ccc(CNS(=O)(=O)c2ccc3c(c2)NC(=O)CC(=O)N3)cc1,1,1
CC(CCc1ccccc1)NC(=O)c1ccc2c(c1)N(Cc1ccc(F)cc1Cl)C(=O)CS2 (configuration not stated),1,0.49
O=C(Cc1ccc(-n2c(=O)[nH]c3ccsc3c2=O)cc1)N1CCN(c2ccc(Cl)cc2)CC1,1.1,0.24
COc1ccc(-c2ccc(=O)n(CC(=O)N(C)c3ccccc3)n2)cc1,1.1,2
Cc1cccc(C(=O)Nc2nnc(COc3ccc(C4CCCCC4)cc3)s2)c1,1.1,0.33
CC(C(=O)NCCc1ccc(S(N)(=O)=O)cc1)N1C(=O)CC(C)(C)Sc2ccccc21 (configuration not stated),1,1.3
CCOC(=O)c1cnc2ccc(Br)cc2c1NCCCN1CCOCC1,0.94,-0.7
Cc1ccccc1Nc1nc(-c2ccccc2)c2cc(Cl)ccc2n1,1.6,23
O=C(CSc1nccn1-c1cccc(Cl)c1)NC1CCCCC1,1.1,0.5
O=C(NCC1CCCO1)c1cc2nc3c(c(C(F)(F)F)n2n1)CCc1ccccc1-3 (configuration not stated),1,0.0093
Cc1ccc(S(=O)(=O)c2nc(-c3ccc(F)cc3)oc2SC(C)C)cc1,0.99,-0.014
Cc1nc2c(-c3ccc(F)cc3)c(C)nn2c(C)c1CCC(=O)NC(C)C,1,0.6
COC(=O)c1ccc(C(=O)Nc2ccc(S(=O)(=O)Nc3nc(C)cc(C)n3)cc2)cc1,0.99,-0.18
Cc1cc(N(C)Cc2ccccc2)nc2cc(O)ccc12,0.99,-0.59
CCN(CC)CCNC(=O)c1cn(C2CCCC2)c(=O)c2c1c1ccccc1n2C,0.95,-1.4
CCOCCCNC(=O)c1ccc2c(c1)N(Cc1ccccc1Cl)C(=O)c1ccccc1S2,0.89,-2.8

# Single values from above.
# CCOCCCNC(=O)c1ccc2c(c1)N(Cc1ccccc1)C(=O)CS2=O (configuration not stated) in CBX7 inh z-score → 2.3
# COCCn1c(C(C)O)nc2ccccc21 (configuration not stated) in CBX7 inh → 1.1
# Cc1cc(N(C)Cc2ccccc2)nc2cc(O)ccc12 in CBX7 inh → 0.99
# COc1ccc(OC)c2[nH]c(=O)c(CCNC(=O)c3ccc4ccccc4c3)cc12 in CBX7 inh z-score → 2.1
# CC(C(=O)NCCc1ccc(S(N)(=O)=O)cc1)N1C(=O)CC(C)(C)Sc2ccccc21 (configuration not stated) in CBX7 inh → 1
# Cc1ccc(S(=O)(=O)C2(C(=O)N(C)Cc3ccccc3)CC2)cc1 in CBX7 inh z-score → 1.3
# c1ccc(OCc2nnc3sc(C4COc5ccccc5O4)nn23)cc1 (configuration not stated) in CBX7 inh z-score → -0.36

# Further structures follow:
SMILES,CBX7 inh,CBX7 inh z-score
COc1ccc(NC(=O)c2cc3c(s2)-c2ccccc2OC3)cc1Cl,0.99,-0.38
OC(COc1ccc(Br)cc1)Cn1c(C(F)(F)F)nc2ccccc21 (configuration not stated),0.98,-0.63
CCc1c(C)nc2c(-c3ccccc3OC)c(C)[nH]n2c1=O,1.1,1.8
CC(C)(C)c1ccc(OCc2nc(-c3cccnc3)no2)c(Br)c1,0.9,-1.3
CCc1cccc(NC(=O)c2ccc(CNc3c(N4CCC(C)CC4)c(=O)c3=O)cc2)c1,1,-0.016
COc1ccc(OC(C)c2nc(-c3ccc(Cl)cc3)no2)cc1 (configuration not stated),1.2,2.2
CC1CC(C)CN(CCCNC(=O)CCNC(=O)Cn2ccc3ccccc3c2=O)C1 (configuration not stated),0.96,-0.84
COc1cc2c(C(=O)N(C)c3cccc(C(F)(F)F)c3)cn(CC(C)C)c(=O)c2cc1OC,0.95,-0.053
CCCC(=O)NCc1nc2ccccc2n1Cc1cc(C)ccc1C,1.2,2.3
O=C(NC1CCCCC1)c1ccccc1C(=O)c1ncc[nH]1,0.99,-0.13
O=C(NCCN1CCOCC1)c1ccc(NC2=NC3CS(=O)(=O)CC3S2)cc1 (configuration not stated),1,0.92
COCCN1C(=O)N(c2ccc(F)cc2)C(=O)C1CC(=O)Nc1ccc(OC)cc1 (configuration not stated),1,0.72
CCCCCn1c(=O)[nH]c2cc(C(=O)NCCCOC)ccc2c1=O,1.2,3.2
CCC(=O)N1CCc2cc(S(=O)(=O)NCc3ccc(F)cc3)ccc21,1.1,1.9
CCCOC(=O)c1ccc(OCC(O)CN2C(=O)NC(C)(C)C2=O)cc1 (configuration not stated),1.1,0.3
O=S(=O)(c1ccc2c(c1)OCCO2)n1c(/C=C/c2ccccc2Cl)nc2ccccc21,1.4,9.1
CCOc1ccc(NC(=O)C2(S(=O)(=O)c3ccc(C)cc3)CC2)cc1,1,1.7
CC12c3ccccc3C(c3ccccc31)C1C(=O)N(c3cccnc3)C(=O)C12 (configuration not stated),0.97,-1.1
Clc1ccc2nc(-c3cccs3)c(NC3CCCC3)n2c1,1.3,3.5
CCC1=Nc2cc(C(=O)N3CCN(Cc4ccccc4)CC3)ccc2Sc2ccccc21,1.2,0.37
O=C(NCCc1ccccc1)c1cc(-c2ccc(F)cc2)on1,1.1,3.2
c1ccc2c(N3CCC(N4CCCCC4)CC3)nnc(Cc3ccncc3)c2c1,1,1.7
O=C(CCc1nc(-c2ccccc2F)no1)NCCCN1CCC(Cc2ccccc2)CC1,0.93,-1
Cc1ccc(-c2nn(-c3ccccc3)c3nc(C)cc(C(F)(F)F)c23)cc1,1.2,0.99
COc1cccc(CNC(=O)c2cnn(-c3ccccc3)c2-n2cccc2)c1OC,1,0.53
CC(C)(C)NC(=O)CCn1nc(-c2ccc(Cl)cc2)ccc1=O,1.1,1.7

# Compound activity (PubChem)
